# NPYLR7 ag: mosquito NPYLR7 agonism; HEK293T NPYLR7/Galpha15, GCaMP6s calcium fluorescence; actives 0.15% (n = 270,000); activation, % at 10 µM; AID 1259423; in the data active = activation above about 40%;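 note: 0% = vehicle and 100% = reference agonist at the receptor; some compounds past the cut are filed as inactive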
# NPYLR7 ag max-min: further read-out of NPYLR7 ag, marked with its call; activation, %; measured here: Max-Min RFU normalised activation; some inactives read as strong as hits;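 span of the calcium signal over five minutes; 0% = vehicle and 100% = native peptide agonist; compound fluorescence can raise it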
# The depositor's hits bear a star. A portion of the library; rates above refer to the full screens.
# The opening 3 compounds as a preview:
SMILES,NPYLR7 ag,NPYLR7 ag max-min
O=C(NNc1ccccc1)C(O)C(O)C(=O)NNc1ccccc1 (stereo not drawn),10,12
Cc1cccc(N2C(=O)C(c3c(C(C)C)[nH]n(-c4ccc(Cl)cc4)c3=O)=C(N3CCC(C)CC3)C2=O)c1,-3,0
CCn1c(SCC(=O)NCc2ccco2)nnc1-c1ccncc1,0,4

# Main list (from the top)
SMILES,NPYLR7 ag,NPYLR7 ag max-min
O=C(NNc1ccccc1)C(O)C(O)C(=O)NNc1ccccc1 (stereo not drawn),10,12
Cc1cccc(N2C(=O)C(c3c(C(C)C)[nH]n(-c4ccc(Cl)cc4)c3=O)=C(N3CCC(C)CC3)C2=O)c1,-3,0
CCn1c(SCC(=O)NCc2ccco2)nnc1-c1ccncc1,0,4
O=C(CCn1c(=O)oc2cc(Cl)ccc21)N1CCN(c2ccccc2Cl)CC1,-8,-9
CCn1c(C2CCN(Cc3cn(C)nc3-c3ccccc3)CC2)n[nH]c1=O,3,-1
CCc1ccc(S(=O)(=O)NCCc2csc(-c3cccc(F)c3)n2)s1,7,7
COc1ccc2nc(-c3ccc(C)c(NC(=O)CC4CCCC4)c3)cn2n1,-5,-10
O=c1oc2ccccc2cc1-c1csc(Nc2cccc(C(F)(F)F)c2)n1,-5,-10
CCOC(=O)CNC(=O)CSc1nc2c(c(=O)n1-c1cccc(OC)c1)SCC2,-6,-9
COc1ccc(-c2nnc(SCC(=O)C3CCCCC3)n2C(C)C)cc1,3,2
Cc1cccc(NC(=O)CN2CCN(C(=O)NC3CCN(C(=O)C(C)C)CC3)CC2)c1C,-3,0
Cc1cc([N+](=O)[O-])nn1CC(=O)Nc1cnc2ccccc2c1,-3,-3
CCOC(=O)C(C#N)=NNc1sc(C(=O)OCC)c(C)c1C(=O)OCC,7,5
COc1ccccc1CC(=O)N1CCC(C(Cc2ccccc2)N(C)C(=O)c2ccccn2)CC1 (stereo not drawn),11,3
CC(=O)C(C)OC(=O)C1CCN(c2nc3ccccc3o2)CC1 (stereo not drawn),11,7
CCn1ccc(C(=O)Nc2nnc(-c3ccno3)o2)n1,-1,-3
CCc1nc2ccc(C(=O)NCCc3ccccn3)cn2c1N(CC)C(C)=O,-7,-12
CCn1c(SCC(=O)NCc2ccc(C)cc2)nc2c([nH]c3ccccc32)c1=O,2,2
Cc1c(CN2CCC(n3nccc3NC(=O)c3ccccc3Cl)CC2)[nH]c2ccccc12,7,1
CCOC(=O)C1(Cc2ccc(F)cc2F)CCCN(C(=O)Cc2nonc2C)C1 (stereo not drawn),1,-2
CN1C(=O)CN(CC(F)F)c2ccccc21,17,9
CCOC(=O)c1nn(-c2ccc(C(F)(F)F)cc2)c(=O)c2c(NC(=O)C(CC)CC)scc12,17,14
COC(=O)C1=C(C)N(Cc2ccccc2)C(=O)NC1c1ccccc1[N+](=O)[O-] (stereo not drawn),0,-6
O=C(Nc1ccc(Oc2cccnc2)cc1)C1CCN(CC2CCCCC2)CC1,-1,-2

# Complete entries from above. Order of values: NPYLR7 ag	NPYLR7 ag max-min
# Record of `CCn1c(SCC(=O)NCc2ccc(C)cc2)nc2c([nH]c3ccccc32)c1=O` : 2	2
# Record of `CCn1ccc(C(=O)Nc2nnc(-c3ccno3)o2)n1` : -1	-3
# Record of `COc1ccccc1CC(=O)N1CCC(C(Cc2ccccc2)N(C)C(=O)c2ccccn2)CC1` (stereo not drawn) : 11	3
# Record of `CN1C(=O)CN(CC(F)F)c2ccccc21` : 17	9
# Record of `CCOC(=O)C1(Cc2ccc(F)cc2F)CCCN(C(=O)Cc2nonc2C)C1` (stereo not drawn) : 1	-2

# Next records follow:
SMILES,NPYLR7 ag,NPYLR7 ag max-min
Cc1cc(C)nc(SCc2cc(-c3nn(C)c(=O)c4ccccc34)ccc2C)n1,0,-2
CCCNC(=O)C1(C)CCCN(CC(=O)c2cc(OC)ccc2OC)C1 (stereo not drawn),-1,-3
Cc1ccc(-n2nc(C(=O)NCC3CCCO3)c(=O)n(Cc3ccccc3Cl)c2=O)cc1C (stereo not drawn),-6,4
Cc1ccc(S(=O)(=O)Oc2ccccc2-c2nc3cc(C)ccc3o2)cc1,4,20
CCOC(=O)N1CCN(Cc2nc(-c3ccc(C)o3)oc2C)CC1,5,5
CC(c1ccncc1)N(C)S(C)(=O)=O (stereo not drawn),13,5
CC(=O)Oc1c(-c2ccc(NC(=O)c3ccc(Cl)cc3)cc2)c(CC(C)C)nn1-c1ccc(C)cc1,4,2
C=CCN(C1CCCC1)S(=O)(=O)C1CON(C)C1c1ccc(OC)cc1 (stereo not drawn),3,2
O=C(CNC(=O)CNC(=O)c1ccco1)NCc1ccc(Cl)cc1,19,7
c1cc(-c2noc(-c3ccc4c(c3)OCO4)n2)ccn1,-1,-3
CC[N+]1(C)[C@@H]2CC[C@H]1CC(OC(=O)[C@H]1CCC(C(=O)OC3C[C@H]4CC[C@@H](C3)[N+]4(C)CC)(c3ccccc3)c3ccccc31)C2 (stereo partly drawn),-8,-9
CC(Cl)C(=O)N1CCN(c2nc3nccc(-c4cccc(C(F)(F)F)c4)n3n2)CC1 (stereo not drawn),0,-3
Cc1nc2ccc(I)cn2c1C=NNC1CCS(=O)(=O)C1 (stereo not drawn),3,4
CCC1(c2ccc(F)cc2)NC(=O)N(CCOc2ccccc2F)C1=O (stereo not drawn),8,3
CC(C)COc1ccc(NC(=O)c2ccnnc2)cc1Cl,-27,-24
C#CCOC(=O)CCCN1C(=O)c2cccc3cccc(c23)C1=O,-1,-7
CC(OCC1CC1)C(=O)NS(=O)(=O)/C=C/c1ccccc1 (stereo not drawn),8,5
CC1SCCN1S(=O)(=O)c1ccc(I)cc1 (stereo not drawn),5,2
CC(NC1CCC2(CCNCC2)CC1)c1cn2ccsc2n1 (stereo not drawn),-5,-13
CC(C)C1=CC2=CCC3[C@](C)(CCC[C@]3(C)C(=O)O)C2CC1 (stereo partly drawn),-7,-12
O=C(N[C@@H]1C[C@H](Cc2ccccc2)O[C@H](c2cccnc2)C1)c1ccccc1,-2,-3
COC(=O)c1cccc(C(=O)N(C)CC2CCN(CCc3ccc(F)cc3)CC2)c1,12,5
O=C(COc1cccc(Br)c1)Nc1cccc(I)c1,-2,-6
CC1CCCN(c2nc3c(c(=O)n(C)c(=O)n3C)n2CCSc2nc3ccccc3s2)C1 (stereo not drawn),-8,-8

# Taken from above.
# In NPYLR7 ag max-min, CC(NC1CCC2(CCNCC2)CC1)c1cn2ccsc2n1 (stereo not drawn) has -13
# In NPYLR7 ag max-min, CC1SCCN1S(=O)(=O)c1ccc(I)cc1 (stereo not drawn) has 2
# In NPYLR7 ag, O=C(N[C@@H]1C[C@H](Cc2ccccc2)O[C@H](c2cccnc2)C1)c1ccccc1 has -2
# In NPYLR7 ag, O=C(COc1cccc(Br)c1)Nc1cccc(I)c1 has -2
# In NPYLR7 ag max-min, CCC1(c2ccc(F)cc2)NC(=O)N(CCOc2ccccc2F)C1=O (stereo not drawn) has 3

# (next part)
SMILES,NPYLR7 ag,NPYLR7 ag max-min
CCOc1ccccc1Nc1nc2ccccc2n1C(C)C,-3,-4
OCc1nnc2n1N=C(c1ccc(Cl)cc1)CS2,2,1
CCOCCn1c(N/N=C\c2ccc(OCC)cc2)nc2c1c(=O)n(C)c(=O)n2C,5,0
Cc1ccsc1CN(C)c1ccc(-c2nccn2C)nn1,-6,-6
CC(=O)CN1CCn2c3c(c4cc(C)ccc42)CCCC31 (stereo not drawn),1,-1
CC(C)CN(CCC(=O)NCc1cccc(C(F)(F)F)c1)c1nc(-c2cccs2)nc2ccccc12,-4,14
Cc1ccc(-c2csc(C3CC(=O)N(C4CC(C)(C)NC(C)(C)C4)C3=N)n2)cc1 (stereo not drawn),1,1
CCOc1ccccc1N1CCN(C(=O)c2cc(-c3ccc(C)o3)nn2-c2ccc(F)cc2)CC1,10,15
COCCCn1c(SCC#N)nc2cc(Cl)ccc2c1=O,5,1
O=C(c1cc(NC2CCCCCC2)nc2ccccc12)N1CCOCC1,0,-1
O=c1[nH]c(=S)[nH]c(O)c1C=NCC1CCCCC1,5,4
Cn1cc(C(=O)Nc2ccc(Oc3cccc(C#N)c3)cc2)ccc1=O,0,-1
CCN(CCN1C(=O)C(C)SC1c1cccc(C)c1)C(=O)c1cccc(F)c1 (stereo not drawn),-5,7
O=C(O)c1ccccc1C1CCN(C(=O)CCCn2cncn2)C1 (stereo not drawn),-13,-18
CN(CCCc1ccccc1)CC(=O)NC1(C#N)CCCCC1,9,6
COc1ccc(NC(=O)N2CCc3nc(C)nc(N4CCC(C)CC4)c3C2)c(OC)c1,-2,4
Cc1cc(=O)n2nc(C(F)(F)F)nc2n1CC(O)c1ccc(Cl)cc1 (stereo not drawn),14,7
Cc1ccc(C2Nc3ccccc3C(=O)N2Cc2ccc3c(c2)OCO3)o1 (stereo not drawn),0,-1
O=c1n(CN2CCN(c3ccccc3Cl)CC2)nc2ccccn12,-4,-6
O=C(CSc1nc2c([nH]c3ccccc32)c(=O)n1-c1ccc(F)cc1)NCC1CCCO1 (stereo not drawn),-1,40
COC(=O)CSc1ncnc2c1nnn2Cc1ccc(F)cc1,-1,22
CCn1cc(NC(=O)N2c3ccccc3CC2C)c2ccccc21 (stereo not drawn),18,11
CC(C)NC(=O)Cn1ccc2ccc(C#N)cc21,-1,-5
O=C(c1ccc(Cl)cc1)N1CCN(C(C(=O)N2CCc3ccccc3C2)C2CCCC2)CC1 (stereo not drawn),-4,-4

# Pulled one by one from above:
SMILES,NPYLR7 ag,NPYLR7 ag max-min
O=C(O)c1ccccc1C1CCN(C(=O)CCCn2cncn2)C1 (stereo not drawn),-13,-18
CC(C)NC(=O)Cn1ccc2ccc(C#N)cc21,-1,-5

# Carrying on:
SMILES,NPYLR7 ag,NPYLR7 ag max-min
CCCCCc1ccc(C(=O)N(CCOC)CC(=O)N(Cc2ccccc2)Cc2cccn2C)cc1,12,11
CCCc1cc(=O)[nH]c(Sc2ccc([N+](=O)[O-])cc2[N+](=O)[O-])n1,-6,-4
O=C(c1cc(Cl)sc1Cl)N1CCN(CCCOC(c2ccc(Cl)cc2)c2ccc(Cl)cc2)CC1,1,-6
CC1CCN(C(=O)CNC(=O)c2ccc(Cl)c(Cl)c2)CC1,3,2
CC(C)COCC1CC2(SC(=Nc3ccccc3)NC2=O)C(=O)O1 (stereo not drawn),-1,-2
O[C@@H]1CN(Cc2ccc(Cl)cc2)CC[C@H]1N1CCCCCC1,5,1
O=S(=O)(c1ccccc1C(F)(F)F)N1CCN(c2c3c(nc4ncnn24)CCC3)CC1,-3,-5
COc1ccc(NC(=O)c2cc3ccccc3o2)c([N+](=O)[O-])c1,11,1
CN(CCc1ccccc1)Cc1cc2n(n1)CCCNC2,8,8
CN(Cc1ccccc1)C1(CNC(=O)CCC(F)(F)F)Cc2ccccc2C1,5,2
O=C(c1ccccc1)N1CCN2C[C@@H](CO)[C@H](c3ccccc3)[C@H]2C1,2,-1
c1ccc(Sc2ccc3c(c2)OCO3)c(CNC2=NCCN2)c1,0,-3
CC1CCc2sc3ncnc(NCc4cccnc4)c3c2C1 (stereo not drawn),4,3
NC(=O)C[n+]1cccc(CNC(=O)c2ccc(OC(F)F)cc2)c1,3,0
CC(C)N(C(=O)CSc1ccc(NC(=O)c2cccc(F)c2)nn1)C(C)C,-3,-4
CN(C)C(=O)Sc1ccccc1NC(=O)c1ccc(F)cc1F,-3,-5
Nc1nnc(C(NC(=O)CCc2c[nH]c3ccccc23)c2ccccc2)s1 (stereo not drawn),-2,-6
Nc1nonc1-c1ccc(Br)cc1,5,2
Cc1ccc(Nc2nc(-c3cc4cc(Br)ccc4oc3=O)cs2)cc1,2,9
COCc1ccc(CN2CCC(CO)(Cc3ccccc3Cl)CC2)o1,10,5
COc1cccc(CN2CCN3C[C@H](c4ccccc4)[C@@H](CO)[C@H]3C2)c1,1,9
Cc1cc(Oc2cccc(Cl)c2)nc(SCc2cccc([N+](=O)[O-])c2)n1,18,18
COc1ccc2c(c1)CN(C(=O)Nc1cc(C(=O)N(C)C)ccc1C)CC2,5,2
COc1ccc(Cl)cc1NC(=O)N(C)c1ccccc1,-4,-3
Cc1sc2nc(CCc3ccccc3)nc(N3CCN(C(=O)Nc4ccc(C(F)(F)F)cc4)CC3)c2c1C,-1,4
C=CCn1c(=S)[nH]c2sc(CC)cc2c1=O,-12,-17
O=C(Cc1nc(-c2ccncc2)n[nH]1)NC1CCCC1,4,7
O=C(NCc1csc(Br)c1)c1cc(C2CC2)on1,-30,-29
COC(=O)CCC(=O)N(Cc1ccccc1Cl)C(C)C,2,1
COc1ncc(CN2CCCC3(CC2)CN(C)C(=O)O3)cn1 (stereo not drawn),4,6
O=C(NCc1ccncc1)c1ccc(-c2cccc(Cl)c2)s1,27,37
CCOC(=O)C1(C)CCCN1C(=O)c1ccccc1 (stereo not drawn),0,-3
Cc1ccsc1CNC(=O)CN1C(=O)c2ccc(Br)cc2C1=O,9,9
Cc1c(CN2CCC(CNC(=O)c3ccco3)C2)oc2ccccc12 (stereo not drawn),-1,-1
Cc1oc2ncn(C)c(=O)c2c1C(=O)Nc1ccc2c(c1)CCC2,-2,-2
Cc1ccc(NC(=O)Cn2nc(-c3ccco3)c3sc(N4CCCCC4)nc3c2=O)cc1Cl,0,-7
Cc1ccc(CN2CCN(C(=O)c3cnc4ccccn34)C(C)C2=O)cc1 (stereo not drawn),3,2
O=C1OC(c2ccco2)=NC1C=Nc1ncn[nH]1 (stereo not drawn),0,-4
OC(CN1CCN(c2ccc(F)cc2)CC1)c1ccc2c(c1)CCN2 (stereo not drawn),4,4
CC(C)CNc1nnc(SCC(=O)NC(C)C)s1,1,-3

# Screens deposited in PubChem by Fisher Drug Discovery Resource Center.
